Source: PubChem BioAssay (several laboratories)
Ecoli rRNA inh: reduced GFP signal of wild-type E. coli, primary screen, bacterial rRNA inhibitor project, GFP/RFP fluorescence, OD600, single point | E. coli WT GFP vs humanized-ribosome RFP mutants, 24 h; stronger effect = lower value; DMSO median 0, no signal -100 | AID 720706, 2013 | GFP signal change (wild-type ribosome), % (no concentration beside the values) | 350,000 compounds, 1.6% hits;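 active = significant combined selectivity score with lowered wild-type GFP, culture density cut under 30%, mutant RFP and density less affected; inactive = any of these conditions unmet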; also: one replicate is shown; some compounds called inactive have numbers as strong as hits
Vif A3G: inhibitors of Vif binding to APOBEC3G peptide, primary screen, biochemical, TR-FRET, GST-Vif 1-94, biotin-A3G peptide, dose response retest (AID 1117319); 260,000 compounds, 0.57% hits; one-dose inhibition, %; IC50 in µM for titrated hits; TR-FRET GST-Vif / biotin-A3G peptide binding; higher % means a stronger effect; test concentration not given here; strong numbers were not always called active; Virion infectivity factor (Human immunodeficiency virus type 1 group M subtype B (isolate …;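 active = above the screen mean plus three standard deviations and confirmed in dose response; inconclusive = results disagree or hit not tested in dose response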;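 also: Vif residues 1-94 fused to GST binding biotinylated APOBEC3G peptide 110-148; 0% = full assay without inhibitor and 100% = GST in place of GST-Vif; retest series ran down from 100 µM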
E coli growth: E. coli growth inhibition, primary screen, OD600; Escherichia coli growth, 23 h; stronger effect = lower value; OD600 absorbance (no concentration beside the values); 330,000 compounds, 0.21% hits;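 active = OD600 absorbance below the run mean of sample wells minus 3.6 SD, in any replicate, cut at about 0.56 in these data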;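 also: stock transfer was 300 nL into about 60 µL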
AF4-AF9 inh: inhibitors of AF4 peptide binding to AF9, primary screen, biochemical, AlphaScreen, biotin-AF4 peptide, FLAG-AF9, single point. AID 651704, 2012. 350,000 compounds, 0.47% hits. Protein AF-9 (Homo sapiens), P42568. inhibition, % at 10 µM;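 active = every replicate reaching a set inhibition limit, whatever the replicate mean, cut at about 25% in these data; inconclusive = mean inhibition reaches that limit but some replicates miss it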;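 also: 0% = plate neutral control median and 100% = total signal loss; the record names both 10 and 1 µM as test concentration; the first replicate is given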
HNF4A DNA FP: change in binding of human HNF4A to DNA, primary screen, biochemical, fluorescence polarization, FITC-DNA | Hepatocyte nuclear factor 4-alpha (Homo sapiens), P41235 | activity change, % at 10 µM | 360,000 compounds, 0.3% hits | 1 h; in the data active = activity change above about 30%, passing the limit was not always enough;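 also: controls were the assay level and a saturating level of protein; the project sought stronger binding though the title names inhibitors; some compounds called inactive have numbers as strong as hits; positive values seem to mean higher polarization but the record does not say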
Target sequence (P41235 whole entry, looked up): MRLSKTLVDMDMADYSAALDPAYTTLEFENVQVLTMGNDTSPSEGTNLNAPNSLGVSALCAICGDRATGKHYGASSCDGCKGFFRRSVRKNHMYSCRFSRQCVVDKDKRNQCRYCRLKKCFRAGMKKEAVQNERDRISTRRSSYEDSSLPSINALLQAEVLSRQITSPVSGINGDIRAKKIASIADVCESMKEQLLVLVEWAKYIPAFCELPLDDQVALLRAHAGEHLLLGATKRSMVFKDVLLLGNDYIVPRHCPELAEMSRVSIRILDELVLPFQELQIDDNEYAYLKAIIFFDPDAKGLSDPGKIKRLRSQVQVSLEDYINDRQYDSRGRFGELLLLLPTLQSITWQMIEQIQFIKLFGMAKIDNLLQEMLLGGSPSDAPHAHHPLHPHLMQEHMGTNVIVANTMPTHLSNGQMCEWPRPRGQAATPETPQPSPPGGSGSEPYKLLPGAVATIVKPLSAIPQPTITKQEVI
FGF22 binding: binders of human FGF22 protein, primary screen, FGF22 synaptogenesis inhibitor project, biophysical, thermal shift, single point | 340,000 compounds, 1.5% hits | recombinant FGF22 thermal shift, SYPRO orange fluorescence; percent of sucrose octasulfate shift, DMSO zero | calls only at 9.99 µM;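 active = melting point raised past a set limit in the mean and every replicate; inconclusive = no clear call; three in four hits are not shown here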
Target sequence (Q9HCT0 whole entry, looked up): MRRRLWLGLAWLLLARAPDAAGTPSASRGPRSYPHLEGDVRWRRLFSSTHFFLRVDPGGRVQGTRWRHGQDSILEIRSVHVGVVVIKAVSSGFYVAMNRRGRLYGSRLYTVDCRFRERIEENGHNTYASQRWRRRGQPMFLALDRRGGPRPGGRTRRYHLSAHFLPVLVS
ALR inh: inhibitors of human ALR sulfhydryl oxidase, primary screen, biochemical, H2O2 detection, HRP-luminol luminescence, single point | AID 485317, 2010 | 290,000 compounds, 3.8% hits | FAD-linked sulfhydryl oxidase ALR (Homo sapiens), P55789 | purified ALR, DTT oxidation | inhibition, % (concentration not given with the values);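 active = mean and each replicate at 75% or more; inconclusive = only one of the two met; inactive = neither met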;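 also: stock transfer was 7.5 nL into about 7.5 µL; 0% = neutral wells and 100% = wells with inactivated enzyme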
Target sequence (P55789 whole entry, looked up): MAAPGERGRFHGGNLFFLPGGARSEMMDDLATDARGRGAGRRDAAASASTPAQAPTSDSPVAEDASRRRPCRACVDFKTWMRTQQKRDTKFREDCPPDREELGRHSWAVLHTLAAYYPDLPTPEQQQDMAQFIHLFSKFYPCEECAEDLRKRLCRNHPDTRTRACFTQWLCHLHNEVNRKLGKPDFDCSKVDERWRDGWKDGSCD
Ecoli rRNA inh OD600: recorded beside Ecoli rRNA inh, whose call it bears; OD600 change, %; measured here: OD600 growth;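 optical density of the mix in the first replicate; 0 = DMSO median and -100 = no signal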
Ecoli rRNA inh RFP: second read-out of Ecoli rRNA inh, no call of its own (marks repeat the call); RFP signal change, %; measured here: RFP humanized mutant strains;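 first replicate; 0 = DMSO median and -100 = no signal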
The depositor's hits bear a star; i = inactive; ? = inconclusive; . = not tested or not shown; & = joins results of further samples.

smiles,Ecoli rRNA inh,Ecoli rRNA inh OD600,Ecoli rRNA inh RFP,Vif A3G,E coli growth,AF4-AF9 inh,HNF4A DNA FP,FGF22 binding,ALR inh
CCOC(=O)N1CCC(n2c(SCC(=O)OCc3ccccc3)nc3ccsc3c2=O)CC1,.,.,.,5%,0.73,.,0.1,.,-1
O=S(=O)(c1ccc(Cl)cc1)c1nc(-c2ccco2)oc1N1CCOCC1,16,10,1.6,.,0.66,-3.1,0.3,i,5
CCO[C@@H]1OC(C(=O)NCc2nc3ccccc3[nH]2)=C[C@H](c2ccc(C(F)(F)F)cc2)[C@H]1CCCO,-19,-38,27,-7%,.,0.2,-3.9,i,-16
O=C(NC1CC1)C1CCCN1C(=O)NC1CCCCC1 (centres undefined),8,10,-1.3,.,0.68,-3.1,2.1,i,-5
O=C1CC(N2CCc3ccccc32)C(=O)N1c1ccccc1 (centres undefined),12,2,2.1,-12%,0.68,4.7,-2.0,i,99*
COc1ccccc1C1CC(=O)Nc2cc3c(cc21)OCCO3 (centres undefined),11,18,-3.0,?,0.69,-32,-0.9,i,3
CCOC(=O)c1c(NC(=O)COC(=O)Cc2c[nH]c3ccccc23)sc(C(=O)N(C)C)c1C,-2,-11,-0.7,2%,0.58,-2.4,3.4,i,4
Cc1ccc(N(CCC(=O)O)S(=O)(=O)c2cccc(C(F)(F)F)c2)cc1,-2,-2,-2.4,.,0.71,-0.8,-7.0,i,8
COc1ccc(NC(=O)C(c2ccc(OC)cc2)N(C)C(=O)c2cnccn2)cc1 (centres undefined),.,.,.,-1%,0.75,.,1.1,.,-4
C[C@@H]1CN([C@@H](C)CO)C(=O)c2cccc(NC(=O)CCCCCC(=O)Nc3ccccc3N)c2O[C@@H]1CN(C)C(=O)NC1CCCCC1,6,7,-0.5,.,.,-1.3,.,i,.
COc1ccc(NC(=O)Nc2ccc3c(c2)C(=O)N([C@@H](C)CO)C[C@@H](C)[C@@H](CN(C)C(=O)Nc2cccc4ccccc24)O3)cc1,4,4,1.1,.,.,1.4,.,i,.
O=C(COC(=O)c1cc[n+]([O-])cc1)Nc1ccc([N+](=O)[O-])cc1,6,5,1.9,6%,0.64,-0.9,0.8,i,1
Cc1ccc(C(=O)N/C(=C\C=C\c2ccccc2)C(=O)NCc2ccco2)cc1,-8,-5,3.5,-6%,0.67,3.7,1.7,i,-3
CCOc1ccc(NC(=O)CN2C(=O)CSc3ccc(S(=O)(=O)N4CCOCC4)cc32)cc1,5,3,1.9,.,0.7,4.2,3.4,i,.
COC(=O)[C@]1(Cc2ccccc2)N[C@H](CN(C)C(=O)c2ccc(C)cc2)[C@@H]2C(=O)N(Cc3ccccc3)C(=O)[C@@H]21,-7,-6,-2.4,-2%,0.69,3.5,0.2,i,.
O=C(Nc1ccc(F)cc1)C(c1ccccc1)N1CCN(S(=O)(=O)c2c(F)cccc2F)CC1 (centres undefined),.,.,.,23%,0.69,.,3.9,.,-6
CN(Cc1ccccc1)C(=O)C(C(=O)c1ccc(F)cc1)n1cc(Cl)ccc1=O (centres undefined),-30*,-24*,2.8*,4%,0.66,0.0,-2.2,i,-2
COC(=O)CCN(C)CCC(=O)OC,.,.,.,-1%,0.73,.,-0.5,.,96*
C[C@H]1CN([C@@H](C)CO)C(=O)c2cc(NC(=O)Cc3ccccc3)ccc2O[C@@H]1CN(C)Cc1ccc(Cl)c(Cl)c1,1,-4,3.7,.,.,0.0,.,i,.
CCN(CC(=O)NCc1cccs1)C(=O)COc1ccc(C(N)=O)cc1,.,.,.,.,0.66,-5.5,2.7,i,.
COCCNC(=O)C1(C)CCCN(Cc2cccc(F)c2)C1 (centres undefined),1,7,-3.0,.,.,-0.5,5.2,i,.
O=c1c2c3c(sc2nc2n1CCC2)CCCCC3,-17,-7,-6.4,.,0.68,0.6,-3.0,i,50
Cc1ccc(S(=O)(=O)/N=C(/c2ccccc2)N(C)c2ccc(O)cc2)cc1,-12,-20,-2.9,-2%,.,1.0,-2.0,i,-9
CO[C@@H]1CC[C@@H]2CCN(C)C(=O)CC3(CCCCC3)CN(C)C(=O)c3cccc(C#N)c3OC[C@@H]1O2,-3,4,-1.2,.,.,-0.8,.,i,.
C=CCN(c1ccc(C(=O)Nc2cc(C)cc(C)c2)cc1)S(C)(=O)=O,3,0,-2.2,.,0.69,-9.6,0.1,i,0
C[C@@H]1CN([C@@H](C)CO)S(=O)(=O)c2ccc(C#Cc3cccnc3)cc2O[C@@H]1CN(C)C(=O)Nc1ccc2c(c1)OCO2,1,-3,3.7,.,.,2.6,.,i,.
C[C@@H]1CN([C@@H](C)CO)C(=O)c2cc(NC(=O)c3ccncc3)ccc2O[C@@H](C)CCCCO[C@H]1CN(C)Cc1ccc(C(=O)O)cc1,1,4,-2.4,.,.,-3.4,.,i,.
COc1ccccc1OCC(=O)O,.,.,.,7%&31%,0.7&0.75,0.1,-4.6&-0.5,.,0&-2
Cc1cc(NC(=O)COC(=O)c2cc(S(=O)(=O)N(C)C)ccc2Cl)no1,1,6,2.3,12%,0.69,-0.9,-1.4,i,4
CNc1c(NC(=O)c2ccc3c(c2)OCO3)c(=O)oc2ccccc12,7,18,-1.5,1%,0.56,-9.6,3.7,i,3
Cc1ccc(N=C2S/C(=C/c3cccc(OCC(=O)O)c3)C(=O)N2C)cc1C,-10,-5,-2.9,0%,0.65,6.4,-0.3,i,20
Cc1cccc(N(Cc2cc(=O)[nH]c3ccccc23)C(=O)C(C)C)c1,-15,-8,-5.9,-10%,0.69,-12,-1.4,i,4
CC(=O)N1N=C(c2ccc(Cl)cc2)OC12CCCC2,3,-1,-3.1,.,0.64,.,1.7,i,-7
C[C@@H]1CN([C@@H](C)CO)C(=O)c2cc(-c3cccnc3)cnc2O[C@H]1CN(C)C,4,6,-0.8,.,.,-2.3,.,i,.
Cc1ccc(NC(=O)c2cc(-c3ccco3)nc3ccccc23)cc1S(=O)(=O)N1CCOCC1,.,.,.,33%,0.66,6.2,-24,.,-16
CCOc1ccc(N2C(=O)CC(N3CCC(NC(=O)Nc4ccccc4)CC3)C2=O)cc1 (centres undefined),.,.,.,0%,0.69,.,-1.8,.,-24
O=C(NCCc1nc2ccccc2[nH]1)C1CCC(=O)N(CCc2cccc(F)c2)C1 (centres undefined),11,0,2.3,33%,0.71,-0.6,0.3,i,2
O=C(COC(=O)COc1ccc(Cl)cc1)NC1CCS(=O)(=O)C1 (centres undefined),.,.,.,-18%,0.63,-1.2,0.2,i,.
Cc1nc(N=Nc2ccc(O)cc2)n[nH]1,-1,7,11,-10%,0.69,-0.8,-3.5,i,94*
Cc1cc(C)n(CC(=O)NNC(=O)CCNC(=O)c2ccccc2Cl)n1,-1,-2,-2.5,0%,0.64,-0.3,-1.9,i,-5

Record cards (already shown). Values in the order: Ecoli rRNA inh	Ecoli rRNA inh OD600	Ecoli rRNA inh RFP	Vif A3G	E coli growth	AF4-AF9 inh	HNF4A DNA FP	FGF22 binding	ALR inh
`CCOC(=O)c1c(NC(=O)COC(=O)Cc2c[nH]c3ccccc23)sc(C(=O)N(C)C)c1C` reads -2	-11	-0.7	2%	0.58	-2.4	3.4	i	4
`Cc1cc(C)n(CC(=O)NNC(=O)CCNC(=O)c2ccccc2Cl)n1` reads -1	-2	-2.5	0%	0.64	-0.3	-1.9	i	-5

Continuation:
smiles,Ecoli rRNA inh,Ecoli rRNA inh OD600,Ecoli rRNA inh RFP,Vif A3G,E coli growth,AF4-AF9 inh,HNF4A DNA FP,FGF22 binding,ALR inh
O=C(c1ccc(NC2=NC3CS(=O)(=O)CC3S2)cc1)N1CCN(c2ccccc2)CC1 (centres undefined),7,9,2.8,.,0.75,-5.0,0.7,i,7
Cc1ccc(C)c(S(=O)(=O)N2CCN(c3ncnc4sccc34)CC2)c1,9,-33,6.0,.,0.68,0.6,1.3,i,-14
CCCn1c(=O)c(-c2nc3ccccc3[nH]2)c(O)c2ccccc21,18,11,-4.3,7%,0.72,-1.4,-2.7,i,.
O=C(CN1CCN(S(=O)(=O)N2CCCCC2)CC1)Nc1cc(Cl)ccc1Cl,1,14,0.3,4%,0.69,-4.8,0.6,i,-1
Cc1cc(Br)ccc1NC(=O)CNC(=O)CN(C)Cc1nc2ccccc2c(=O)[nH]1,.,.,.,13%&-3%,0.71,.,0.2,.,2
CCCCc1cc(=O)oc2cc(C)cc(OCc3nn[nH]n3)c12,.,.,.,7%,0.78,.,-0.9,.,9
CN(C)CCCNC(=O)[C@H]1[C@H](CO)[C@H]2Cn3c(ccc(-c4ccccc4)c3=O)[C@H]2N1C,4,2,-0.5,.,.,-0.7,.,i,.
Cc1cc([N+](=O)[O-])ccc1NC(=O)CCC(=O)N1CCCCCC1,7,8,3.7,-2%,0.74,-0.5,2.5,i,-7
Cc1c(Cc2ccccc2)c(=O)oc2cc(OCC(=O)c3ccccc3)ccc12,.,.,.,.,0.73,.,2.9,.,-11
Cn1cnc([N+](=O)[O-])c1Sc1nc(N)nc2c1ncn2C1CC(O)C(CO)O1 (centres undefined),24,12,2.8,-1%,.,2.5,1.0,i,.
COCC(=O)N(Cc1ccccc1)c1ccccn1,.,.,.,5%,0.7,.,0.0,.,.
COc1ccc2c3c(n(C)c2c1)[C@H](CO)N(C(=O)C1CCCCC1)CC31CN(C(=O)Nc2cccc(F)c2)C1,-4,-31,-0.6,.,.,0.5,.,i,.
O=C(Nc1cccc(F)c1)N1CCCCN2[C@H](CO)[C@H](c3ccc(-c4ccncc4)cc3)[C@@H]2C1,-3,-8,-0.8,.,.,-0.8,.,i,.
CN(c1ccccc1C(=O)O)S(=O)(=O)c1ccc2c3c(cccc13)C(=O)N2,.,.,.,19%,0.74,.,-5.6,.,-55
C[C@@H]1CN([C@@H](C)CO)C(=O)c2cc(-c3cccc(F)c3)cnc2O[C@@H]1CN(C)C(=O)c1cnccn1,4,1,-1.8,.,.,-2.3,.,i,.
Cc1ccc(NC(=O)CCN2C(=O)c3ccccc3S2(=O)=O)cc1F,12,14,1.7,0%,0.69,0.9,1.9,i,-10
COc1cc(-c2cc(C(=O)OCC(=O)Nc3ccc4c(c3)OCO4)c3ccccc3n2)cc(OC)c1OC,5,-2,-1.3,14%,0.69,-5.0,0.5,i,-14
Clc1cccc(Cc2ccc(Cl)nn2)c1,-17,-15,-4.9,-5%,0.64,-1.5,2.2,i,2
O=C(COC(=O)c1ccc(S(=O)(=O)N2CCCCC2)cc1)Nc1ccccc1Cl,4,7,1.0,1%,0.67,-6.1,2.7,i,.
CCCCNc1c(-c2ccc(OC)c(Sc3ccc(OC)cc3)c2)nc2ccc(Cl)cn12,6,10,27,.,0.75,15,0.2,i,-8
COc1ccc(-c2ccc([C@@H]3[C@@H](CO)N4CCCCN(C(=O)NC(C)C)C[C@H]34)cc2)cc1,4,16,-2.3,.,.,0.7,.,i,.

An excerpt; count on the stated rates, not on these rows.
